Compound activity as filed in PubChem.
Rango release inh: prevents RanGTP from dissociating the Rango-importin beta complex | Biochemical FRET Rango-importin beta, RanGTP-induced dissociation | Potency, µM (titrated, usually from 46.1 µM), for the others: top-dose activity change, negative = inhibition | O95149+P62826 | 0.071% of 340,000 active; active means falling FRET ratio curve, often poorly fitted, with flat reads before Ran was added; inconclusive means other falling curves, or compound fluorescence or quenching; inactive means flat or rising ratio curve;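 also: potency is read from the fitted curve at half-maximal effect; % of control where 0% means no effect; nearly all actives have a fitted effect of over 45% in size; -100% = wells without RanGTP and RCC1; the record marks most hits as doubtful in a second field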
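Rango (0.1 uM)–importin beta (0.25 uM) complex; RanGTP-RCC1 trigger; 45 min RT; CFP/YFP FRET read.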
miR-21 FLuc: miR-21 reporter, rising signal | AID 2288 | Potency, µM (series often up to 38.3 µM), without a hit: at the top dose reporter change, positive = more light | HeLa miR-21 FLuc reporter, luciferase, 48 h | 340,000 tested, under 10 active; active = well fitted rising curve with a large enough effect; inconclusive = small, poorly fitted or top-dose-only effect; inactive = no such curve, though single readings can be large or run the other way;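 also: % of control where 0% means no effect; miR-21 action dims this reporter so a rising signal means less miR-21 action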
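Using DMEM plus 10% FBS, HeLa miR-21-FLuc cells are incubated with test compounds (final up to about 40uM) for 48 hours; firefly luciferase signal is then imaged following reagent-mediated lysis.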
Rango-impB inh: Rango-importin beta binding inhibition; 0.031% of 340,000 active; Rango CFP/YFP FRET sensor + importin beta, 45 min; Potency, µM (top dose mostly 92.2 µM), inactives show top-dose inhibition of complex formation; Q14974; active = rising FRET ratio curve, often small or poorly fitted; inconclusive = mostly compound fluorescence or quenching in the first reads; inactive = flat curves in all reads;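 also: potency is read from the fitted curve at half-maximal effect; 0% = DMSO wells and 100% = buffer wells lacking importin beta; nearly all actives have a fitted effect of over 15% in size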
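FRET biosensor (snurportin 1 IBB flanked by EYFP and cerulean), 50 nM, with compound 5 min, then 0.125 microM importin beta in PBS, 1 mM DTT, 0.02% Tween-20, 0.1% BSA. CFP/YFP ratio read after 45 min at room temperature; pre-read flags interference.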
GLA inh pH 4.5: alpha-galactosidase A (human) inhibition, pH 4.5. P06280. purified enzyme, 4-MU-alpha-Gal fluorescence, pH 4.5. activity change, negative = inhibition, % at 105 µM. 230,000 tested, under 10 active. AID 1467; inconclusive = small, poorly fitted or top-dose-only inhibition, or a rising curve; inactive = flat fitted curve, though single readings scatter; no compound was filed as active;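 also: 0% = full activity with enzyme and -100% = basal without enzyme; dose as in the result columns while the protocol names 77 µM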
Target sequence (P06280 whole entry, looked up): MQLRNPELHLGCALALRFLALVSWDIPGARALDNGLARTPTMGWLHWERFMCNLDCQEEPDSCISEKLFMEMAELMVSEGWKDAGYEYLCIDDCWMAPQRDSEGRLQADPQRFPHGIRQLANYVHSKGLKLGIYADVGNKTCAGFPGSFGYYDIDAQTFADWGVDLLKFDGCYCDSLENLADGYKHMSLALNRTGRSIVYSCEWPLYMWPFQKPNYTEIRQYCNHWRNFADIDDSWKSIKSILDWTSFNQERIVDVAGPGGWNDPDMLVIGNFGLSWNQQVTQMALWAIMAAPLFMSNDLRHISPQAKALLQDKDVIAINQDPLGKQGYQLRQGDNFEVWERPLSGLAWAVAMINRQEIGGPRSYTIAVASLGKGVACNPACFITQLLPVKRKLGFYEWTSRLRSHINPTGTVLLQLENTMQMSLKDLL
Active calls of the source: *; ? = inconclusive; . = no result given; [ ] = dose if it differs, or a comment. A portion of the library; rates above refer to the full screens.

Preview:
Rango release inh | miR-21 FLuc | Rango-impB inh | canonical_smiles | GLA inh pH 4.5
4% | . | 0.7% | O=C(COC(=O)CCCN=C1NS(=O)(=O)c2ccccc21)NNC(=O)c1ccccc1 | .
-10% | -4% | -1.4% | Cc1n(CC(O)COC2CCCCC2)c2ccccc2[n+]1C (stereo unspecified) | 6
0% | 0% | -4.2% | CCC(Sc1nc2ccncc2[nH]1)C(=O)Nc1ccc(C)c(Cl)c1 (stereo unspecified) | .
. | 0% | . | CN1CCN(S(=O)(=O)c2ccc(-c3ccc(S(=O)(=O)N4CCN(C)CC4)cc3)cc2)CC1 | 3
-11% | -11% | -2.8% | Cn1c(=O)cc(OCC(=O)NC2CCCCC2)c2ccccc21 | 2
0% | -2% | 4.0% | COc1cccc(/C=C/C(=O)OCC(=O)Nc2ccc(Cl)c(S(=O)(=O)N(C)C)c2)c1OC | -4
0% | 0% | -2.5% | CC1(c2ccccc2)NC(=O)N(CC(=O)NC(=O)NC2CCCC2)C1=O (stereo unspecified) | 7

All compounds of this part, from the start:
Rango release inh | miR-21 FLuc | Rango-impB inh | canonical_smiles | GLA inh pH 4.5
4% | . | 0.7% | O=C(COC(=O)CCCN=C1NS(=O)(=O)c2ccccc21)NNC(=O)c1ccccc1 | .
-10% | -4% | -1.4% | Cc1n(CC(O)COC2CCCCC2)c2ccccc2[n+]1C (stereo unspecified) | 6
0% | 0% | -4.2% | CCC(Sc1nc2ccncc2[nH]1)C(=O)Nc1ccc(C)c(Cl)c1 (stereo unspecified) | .
. | 0% | . | CN1CCN(S(=O)(=O)c2ccc(-c3ccc(S(=O)(=O)N4CCN(C)CC4)cc3)cc2)CC1 | 3
-11% | -11% | -2.8% | Cn1c(=O)cc(OCC(=O)NC2CCCCC2)c2ccccc21 | 2
0% | -2% | 4.0% | COc1cccc(/C=C/C(=O)OCC(=O)Nc2ccc(Cl)c(S(=O)(=O)N(C)C)c2)c1OC | -4
0% | 0% | -2.5% | CC1(c2ccccc2)NC(=O)N(CC(=O)NC(=O)NC2CCCC2)C1=O (stereo unspecified) | 7
-3% | -28% | -0.8% | CC(=O)Nc1nc(C)c(-c2nc3ccc([N+](=O)[O-])cc3[nH]2)s1 | .
1% | 1% | -3.1% | O=C(COc1ccc(Cl)cc1)Nc1ccc2oc(=O)ccc2c1 | .
6% | -40% | 0.5% | CC(C)C(=O)Nc1cccc(NC(=S)NC(=O)c2cccs2)c1 | .
-29% | 2% | -4.4% | CCC(Cc1ccccc1)NC(=O)CN1C(=O)CSc2ncccc21 (stereo unspecified) | 8
14% | -1% | -0.8% | CCNC(=O)C1CC(=O)N(Cc2ccc3c(c2)OCO3)C(=Nc2ccc(OCC)cc2)S1 (stereo unspecified) | -6

(list continues)
Rango release inh | miR-21 FLuc | Rango-impB inh | canonical_smiles | GLA inh pH 4.5
-8% | 0% | 1.6% | O=C(Nc1ccc(Cl)cc1C(F)(F)F)C(Sc1nnc(-c2cccs2)o1)c1ccccc1 (stereo unspecified) | -9
-2% | -13% | -7.4% | CCCN(CC(=O)Nc1ccc(Cl)cc1Cl)C(=O)/C=C/c1cccc([N+](=O)[O-])c1 | 5
? | -6% | ? | Cc1cc(NCCCN2CCOCC2)n2c(nc3ccccc32)c1C#N | ?
-16% | 4% | 6.5% | COc1cc(NC(=O)CSc2nc3c(c(=O)n(C)c(=O)n3C)n2C)cc(OC)c1 | .
23% | -46% | -0.7% | Cc1c(OCc2ccccc2)cccc1OCc1ccccc1 | -1
-11% | 1% | -2.5% | O=C(CN1CCN(C(=O)c2cccs2)CC1)Nc1ccc(Br)cc1 | 0
2% | . | -0.4% | N#CC1(NC(=O)COC(=O)c2ccccc2[N+](=O)[O-])CCCCC1 | .
-16% | -3% | 5.2% | NC(=O)c1cc([N+](=O)[O-])ccc1NCc1cccnc1 | -6
6% | 1% | 0.0% | COCCCNC(=O)C1CCN(c2nc(C)cc(C)n2)CC1 | 5
0% | -5% | 1.9% | CC1CCC(=NNC(=O)Cc2cccn2C)CC1 (stereo unspecified) | -1
-9% | 0% | 1.6% | Cc1cc(C)c(NC(=O)COC(=O)/C=C/c2cccs2)c(C)c1 | 2
-16% | . | -7.1% | NS(=O)(=O)c1cccc(NC(=O)CSc2nnc(C3CC3)n2-c2ccccc2)c1 | .

Remaining list, next part
Rango release inh | miR-21 FLuc | Rango-impB inh | canonical_smiles | GLA inh pH 4.5
20% | 1% | 4.0% | CCc1cc(C(=O)OC)c(NC(=O)CN2CCN(C(=O)c3ccco3)CC2)s1 | .
13% | -1% | 1.5% | COC(=O)c1cc(=O)n(Cc2ccc(F)cc2)c(=Nc2ccccc2)s1 | 2
13% | . | -1.0% | CN(CC(=O)Nc1ccc(F)cc1)C(=O)C1CCN(C(=O)Nc2ccccc2)CC1 | .
-5% | -16% | 4.6% | CCOC(=O)c1sc(NC(=O)C(C)Sc2nnc(N)s2)nc1C (stereo unspecified) | 5
-5% | -2% | 2.1% | Cc1cc(N2CCCC2=O)c(N)cc1N | 3
9% | -11% | -2.7% | COc1ccc(C(=O)/C=C/c2ccc(N3CCCCC3)c([N+](=O)[O-])c2)c(OC)c1 | 2
11% | 23% | -0.5% | Cc1ccc(-c2nc(C(=O)NCC3CCCO3)cc3c2[nH]c2ccccc23)cc1 (stereo unspecified) | .
11% | -13% | 1.8% | Cc1ccc(/C(N)=N/OC(=O)Cc2cccc3ccccc23)cc1 | 0
-8% | . | ? | O=C(NC(=S)Nc1cccc(NC(=S)NC(=O)c2ccccc2)c1)c1ccccc1 | .
10% | -2% | 4.4% | Cc1ccc(S(=O)(=O)N(Cc2ccccc2)Cc2ccco2)cc1 | 3
0% | 21% | 0.9% | COc1ccc(CCNc2ccc(N3C(=O)CC(C)C3=O)cc2[N+](=O)[O-])cc1OC (stereo unspecified) | -10
12% | 0% | 1.3% | O=C(NCCN1CCN(c2ccccc2)CC1)C1CCN(S(=O)(=O)c2cccc3nonc23)CC1 | -9

New compounds follow.
Rango release inh | miR-21 FLuc | Rango-impB inh | canonical_smiles | GLA inh pH 4.5
-8% | 3% | -1.4% | COC(=O)N1C(=O)[C@](c2ccc(OC)cc2)(C(C)C)N1C(=O)OC | .
12% | -6% | -0.9% | CCCC(C)NC(=O)CSc1nnc(-c2c[nH]c3ccccc23)o1 (stereo unspecified) | 5
-6% | 20% | 1.7% | CCOc1ccc2ccccc2c1C(=O)N1CCN(c2ccccc2)CC1 | -10
-19% | -16% | -4.2% | CCOC(=O)c1c(-c2cccc(N)c2)cn2ccccc12 | -10
-16% | . | -1.9% | OCCN1CCSC1=S | .
-1% | -17% | ? | CCOc1ncccc1C(=O)NCc1cccc(OC)c1 | 3
7% | -1% | 0.6% | Cc1cc(NC(=O)c2cccc([N+](=O)[O-])c2)no1 | 6
4% | 1% | ? | N=C1SCC(=O)N1c1ccccc1Cl | .
-18% | -59% | ? | Cc1ccc(NC(=O)c2snc3ccc(Cl)cc23)cc1C | 3
-15% | ? | 3.8% | CCOC(=O)c1nnc(-c2ccccc2)nc1Sc1ccccc1Cl | 1
-21% | . | 3.3% | Cc1cc(C(=O)COc2ccc(F)cc2Br)c(C)n1C1CC1 | .
17% | 2% | 1.3% | COc1cc(CC(=O)O)c([N+](=O)[O-])cc1OC | -2

Continuation.
Rango release inh | miR-21 FLuc | Rango-impB inh | canonical_smiles | GLA inh pH 4.5
1% | 0% | 1.0% | CC(=O)N(Cc1ccccc1)c1ccc(C(=O)O)cc1 | 8
16% | . | 1.4% | CCN(CC)CCn1c2c(c(SCC(=O)Nc3cc(OC)cc(OC)c3)nc1=O)CCC2 | .
-9% | -9% | 1.4% | Cc1cc(C)nc(Nc2ccc(O)cc2)n1 | .
1% | . | 1.0% | CCOc1ccc(S(=O)(=O)N2CCN(C(=O)Cc3ccc(S(=O)(=O)N4CCOCC4)s3)CC2)cc1 | .
11% | -1% | 0.8% | COC(=O)c1ccc(C2/C(=C(\O)c3ccc(OC)c(C)c3)C(=O)C(=O)N2c2cc(C)on2)cc1 (stereo unspecified) | -9
-7% | -57% | ? | Cc1ccc(NC(=O)C(=O)N2CCCC2)cc1Cl | 1
3% | . | 4.3% | Cc1ccc(NC(=O)CSCC(=O)Nc2nnc(C3CC3)s2)cc1 | .
24% | -5% | -5.4% | Cc1cc(C)c(C(=O)CSc2nnc(-c3ccccc3Br)o2)cc1C | 5
-9% | -1% | -1.8% | CC(c1ccco1)N(C(=O)C12CC3CC(CC(C3)C1)C2)c1ccccn1 (stereo unspecified) | -7
-4% | -2% | 0.6% | COc1ccc(CCNC(=O)COc2ccc(S(=O)(=O)NC(C)C)cc2)cc1OC | 8[21.1 µM]
-15% | . | 0.1% | CCN(CC)C(=O)[C@H]1CC(CC(=O)NCc2cccc(C(F)(F)F)c2)C(=O)N2CCc3c([nH]c4ccccc34)[C@]12C (stereo partly specified) | .
1% | -6% | -2.9% | CC1(C)CC(=O)C(N=Nc2cccc(F)c2C#N)=C(O)C1 | -16

Some of the entries so far, with two lines to a compound.
The line under a structure holds: Rango release inh	miR-21 FLuc	Rango-impB inh	GLA inh pH 4.5
COc1ccc(CCNC(=O)COc2ccc(S(=O)(=O)NC(C)C)cc2)cc1OC
→ -4%	-2%	0.6%	8[21.1 µM]
Cc1cc(C)nc(Nc2ccc(O)cc2)n1
→ -9%	-9%	1.4%	.

Continuation:
Rango release inh | miR-21 FLuc | Rango-impB inh | canonical_smiles | GLA inh pH 4.5
8% | 5% | -5.3% | CC1=NCCN1S(=O)(=O)c1ccccc1[N+](=O)[O-] | -6
? | -35% | ? | Cc1cccc2c1-c1sc(C(=O)Nc3nccs3)cc1CO2 | 5
-18% | . | ? | COc1ccccc1-c1sc2cc3c(cc2c1-c1ccc(O)cc1)OCO3 | .
-3% | -3% | -3.4% | COC(=O)c1c(NC(=O)COC(=O)[C@@H](NS(=O)(=O)c2ccccc2)C(C)C)sc2c1CCC2 | 1
-4% | 0% | 0.3% | CC(=O)c1cccc(NC(=S)NCc2ccco2)c1 | 0
-13% | -4% | -0.3% | CN(C)CCN1C(=O)C(=O)/C(=C(/O)c2ccc(F)cc2)C1c1ccccc1F (stereo unspecified) | -13
? | -10% | ? | CN1CCc2c(sc(NC(=O)c3ccc(S(=O)(=O)N4CCCCCC4)cc3)c2C(N)=O)C1 | .
0% | 1% | 0.0% | COc1ccccc1CC(=O)N1CCN(c2cccc(C(F)(F)F)c2)CC1 | -3
-21% | -4% | ? | CC(C)OC(=O)CC(=O)CSc1nc(-c2ccc(F)cc2)cc(-c2ccccc2)c1C#N | -3
3% | -5% | 1.0% | CCOc1nc(C)ccc1-c1noc(CC)n1 | -8
-16% | -26% | -0.3% | Cc1cccc(Cn2cc(SCC(=O)Nc3nccs3)c3ccccc32)c1 | -4
-9% | . | 1.3% | C=C(CCO)C1=CCN(S(=O)C(C)(C)C)[C@@H]1CCO (stereo partly specified) | .

More structures follow.
Rango release inh | miR-21 FLuc | Rango-impB inh | canonical_smiles | GLA inh pH 4.5
12% | . | 4.3% | COC(=O)c1cccc(NC(=O)c2cccc(N3C(=O)CCC3=O)c2)c1 | .
0% | . | 0.4% | O=C(c1ccc2c3c(cccc13)CC2)N1CCN(c2ncccn2)CC1 | .
6% | . | 1.0% | COc1cc(CNC(=O)c2ccc3c(c2)S(=O)(=O)c2ccccc2C3=O)cc(OC)c1 | .
-9% | -17% | 1.6% | O=c1c2[nH]cnc2n(-c2cccc(Br)c2)c(=O)n1Cc1ccccc1 | .
-1% | 0% | 1.5% | Cn1c(=O)c2c(ncn2CC(=O)OCC(=O)NC2CCCc3ccccc32)n(C)c1=O (stereo unspecified) | 2
-11% | . | -0.4% | COc1ccc(NC(=O)COC(=O)c2cc(Cl)ccc2O)cc1S(=O)(=O)N1CCCCC1 | .
-1% | -6% | -2.2% | O=C(CSc1nncn1-c1cccnc1)Nc1ccccc1C(F)(F)F | .
22% | -12% | -1.6% | Cc1ccc(Nc2ccc(C(=O)O)cc2[N+](=O)[O-])cc1 | .
-14% | 1% | -0.3% | CCN1CCCc2cc(CN(CCN3CCOCC3)C(=S)Nc3cc(F)cc(F)c3)ccc21 | 1
-1% | . | 0.8% | Cc1ccc2nc(SC(C)C(=O)NC3CCCC3)[nH]c2c1 (stereo unspecified) | .
-14% | ? | -0.8% | COc1cc(NS(=O)(=O)c2ccc(C)cc2)c2ncccc2c1 | -2
-3% | -10% | 3.5% | CCOc1ccccc1-c1nc(C(N)=O)c2[nH]c(=O)n(-c3cccc(C)c3)c2n1 | 0
